Assay outcomes from PubChem.
MITF inhib: inhibitors of MITF; TRPM1 promoter luciferase, luminescence, 24 h; inhibition, % (no concentration beside the values); 37,000 compounds, 0.28% hits;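 active = most replicates at 85% or more, or half of them and the mean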;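 also: human melanocyte line stably carrying TRPM1 promoter luciferase reporter; 0% = vehicle wells and 100% = a positive control; the first replicate is given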
YB-1 expr inh: YB-1 expression inhibition. delta delta Cp (YB-1 minus CDIP) (test concentration not listed). 30,000 compounds, 0.37% hits. U2OS, qRT-PCR YB-1 vs CDIP delta delta Cp, 16 h; stronger effect = higher value; zero = DMSO, each unit about twofold;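 active = delta delta Cp rounded down to an integer at or above 3, about 3 SD of DMSO wells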;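 also: higher means less YB-1 transcript or more CDIP transcript relative to DMSO; stock transfer was 100 nL into about 100 µL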
PD-1 reverse act: activators reversing PD-1 mediated T-cell inhibition | primary human CD4 T cells, PD-L1 beads, CellTiter-Glo 96 h | activation, % (test concentration not listed) | 29,000 tested, under 10 active | AID 2316;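 active = replicate mean of 50% or more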;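 also: 0% = median vehicle wells and 100% = positive control; 100 nL library stock added to about 50 µL; numbers are from one replicate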
Shh pathway inh: Sonic Hedgehog pathway inhibition. Shh-LIGHT2 Gli-luciferase reporter, 30 h. inhibition, % (concentration not given with the values). 22,000 compounds, 2.1% hits. AID 2313;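 active = replicate mean of 65% or more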;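 also: pathway switched on by Shh-conditioned medium diluted 1 in 25 in low serum; 100 nL library stock added to about 40 µL; 0% = median of neutral wells and 100% = positive control level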
Active calls of the source: *; . = no result given. This is a subset; count on the stated rates, not on these rows.

molecule,MITF inhib,PD-1 reverse act,YB-1 expr inh,Shh pathway inh
C[C@H](CO)N1C[C@H](C)[C@H](CN(C)Cc2ccc(Cl)c(Cl)c2)Oc2ccc(NC(=O)Nc3ccc(C(F)(F)F)cc3)cc2CC1=O,-3,1.0,-0.038,-14
C[C@H](CO)N1C[C@H](C)[C@@H](CN(C)C(=O)NC2CCCCC2)Oc2c(NS(=O)(=O)c3cccs3)cccc2C1=O,-1,0.3,0.13,-119
O=C(Nc1cccc(S(=O)(=O)N2CCOCC2)c1)Nc1cccc(Cl)c1Cl,14,1.3,.,.
CCOc1cccc(NC(=O)C2CC(=O)N(/N=C(\C)c3ccc(Br)s3)C(=N)S2)c1 (stereo not given),-16,1.0,-0.29,-30
CCc1ccccc1NC(=O)COc1cc(O)c2c(=O)cc(-c3ccccc3)oc2c1,3,1.2,.,.
C[C@@H]1CN([C@@H](C)CO)C(=O)c2cccc(NC(=O)C3CCCCC3)c2O[C@@H]1CN(C)S(=O)(=O)c1ccccc1,-4,-0.9,0.24,-73
COc1ccc(OC)c(NC(=O)COc2ccc3c(C)cc(=O)oc3c2)c1,-22,0.3,.,.
C[C@@H]1CN([C@H](C)CO)C(=O)Cc2cc(NS(=O)(=O)c3cn(C)cn3)ccc2O[C@H]1CN(C)S(=O)(=O)c1ccccc1,-1,.,-0.8,.
Cc1cc(C)c2c(/N=N/N3CCCCCC3)[nH]nc2n1,-35,0.1,0.11,.
C[C@@H]1CN([C@H](C)CO)C(=O)c2cccc(NS(=O)(=O)c3ccc(Cl)cc3)c2O[C@@H]1CN(C)C,-19,0.2,-0.38,-94
O=C(CNS(=O)(=O)c1ccccc1)Nc1ccccc1Br,-22,-0.3,.,.
Cc1cc(C(=O)Nc2cccc3c2O[C@H](CN(C)C(=O)Nc2ccccc2)[C@@H](C)CN([C@@H](C)CO)C3=O)n(C)n1,-7,2.5,-0.36,-29
Cc1noc(C)c1NC(=O)Nc1cccc2c1O[C@H](CN(C)Cc1ccc3c(c1)OCO3)[C@H](C)CN([C@@H](C)CO)C2=O,0,1.6,0.25,-9
COc1ccc(-c2cc(C(F)(F)F)n3ncc(C(=O)NCc4nc5ccccc5[nH]4)c3n2)cc1OC,68,-8.6,.,.
C[C@@H]1CN([C@H](C)CO)C(=O)c2cccc(NC(=O)c3ccncc3)c2O[C@H]1CN(C)Cc1ccc(C(F)(F)F)cc1,1,-3.4,-0.072,11
C[C@H]1CN([C@@H](C)CO)C(=O)c2cc(NC(=O)Cn3cnnn3)ccc2O[C@H]1CN(C)Cc1ccc(C(F)(F)F)cc1,-14,2.8,-0.049,.
Cc1cccc(NC(=O)CC2NCCNC2=O)c1 (stereo not given),-23,0.8,.,.
C[C@H]1CN([C@@H](C)CO)C(=O)c2cc(NC(=O)Nc3ccc(F)cc3)ccc2O[C@H]1CN(C)S(=O)(=O)c1cn(C)cn1,-1,2.0,-0.029,.
C[C@H](CO)N1C[C@H](C)[C@H](CN(C)Cc2ccc(Cl)c(Cl)c2)Oc2c(NC(=O)Nc3ccc4c(c3)OCO4)cccc2C1=O,9,-3.1,0.46,-70
C[C@@H]1CCCCO[C@H](CN(C)Cc2ccc(C(F)(F)F)cc2)[C@@H](C)CN([C@H](C)CO)C(=O)c2cc(NC(=O)Nc3ccccc3)ccc2O1,19,-3.7,0.084,1
CC(=O)OCC(=O)[C@@]1(OC(C)=O)[C@@H](C)C[C@H]2[C@@H]3C[C@H](F)C4=CC(=O)C=C[C@]4(C)[C@@]3(F)[C@@H](O)C[C@@]21C,-41,-5.9,0.15,28
C[C@@H]1CN([C@H](C)CO)C(=O)c2cccc(NC(=O)c3ccc(-c4nccs4)cc3)c2O[C@H]1CN(C)Cc1ccc2c(c1)OCO2,39,.,0.27,17
COc1cc([C@H]2OC[C@H]3[C@@H]2CO[C@H]3c2cc(OC)c(OC)c(OC)c2)cc(OC)c1OC,.,.,0.12,16
COc1ccc(S(=O)(=O)Nc2ccc3c(c2)CC(=O)N([C@H](C)CO)C[C@@H](C)[C@H](CN(C)S(=O)(=O)c2cccs2)O3)cc1,2,-1.4,0.07,-16
C[C@H]1CN([C@@H](C)CO)C(=O)Cc2cc(NC(=O)Nc3ccccc3)ccc2O[C@@H]1CN(C)S(=O)(=O)c1ccc(Cl)cc1,21,-1.0,0.33,-30
Cc1ccc(S(=O)(=O)N(C)C[C@H]2Oc3ccc(NC(=O)Cn4cnnn4)cc3CC(=O)N([C@@H](C)CO)C[C@H]2C)cc1,1,.,-0.29,-1
CNC[C@@H]1Oc2ccc(NS(=O)(=O)c3ccc(Cl)cc3)cc2C(=O)N([C@@H](C)CO)C[C@H]1C,-6,3.7,0.58,-43
Cc1noc(C)c1NC(=O)N(C)C[C@H]1Oc2c(NC(=O)c3ccc(-c4nccs4)cc3)cccc2C(=O)N([C@H](C)CO)C[C@H]1C,-2,0.2,-0.06,19
C[C@H](CO)N1C[C@H](C)[C@@H](CN(C)Cc2ccncc2)Oc2c(NC(=O)Nc3ccccc3)cccc2C1=O,14,-0.6,-0.33,-3
CN(CC(=O)Nc1ccc(C#N)cc1)S(=O)(=O)c1ccc(Cl)cc1,15,-2.0,.,.
Brc1cccc(Nc2ncnc3cc4nc[nH]c4cc23)c1,15,4.0,-0.075,29
C[C@H]1CN([C@@H](C)CO)C(=O)c2cc(NC(=O)C3CCCCC3)ccc2O[C@H]1CN(C)Cc1ccc(C(=O)O)cc1,0,-0.1,2.1,9
CC(CC[C@]1(C)C2CCC=C(CO)[C@]2(C)CC[C@H]1C)CC(=O)O (stereo not given in full),.,.,-0.26,-16
C[C@@H]1CN([C@H](C)CO)C(=O)c2cc(NC(=O)Nc3cccc4ccccc34)ccc2O[C@H]1CN(C)Cc1ccncc1,12,0.2,-0.046,-12
C[C@H](CO)N1C[C@H](C)[C@H](CN(C)S(=O)(=O)c2ccccc2)Oc2c(NC(=O)c3ccc(-c4nccs4)cc3)cccc2C1=O,-25,0.1,0.7,4
COc1ccc(OC)c(NC(=O)CCn2cnc3ccccc3c2=O)c1,-2,-1.7,.,.
C[C@H]1CN([C@@H](C)CO)C(=O)c2cc(NC(=O)Cc3ccccc3)ccc2O[C@H]1CN(C)C(=O)Nc1ccc2c(c1)OCO2,-2,3.1,-0.16,.
COc1ccc(C(=O)NCc2cccnc2)cc1C(=O)NCc1cccnc1,0,1.7,-0.097,-45
C[C@H](CO)N1C[C@H](C)[C@@H](CN(C)C(=O)Nc2ccc3c(c2)OCO3)Oc2ccc(NS(=O)(=O)c3cccs3)cc2C1=O,-4,0.5,-0.046,-22
Cc1cc(C)c(C#N)c(Sc2ncnc3c2nnn3Cc2ccccc2)n1,71,-7.0,-0.54,.

Random excerpt: four records from the list.
molecule,MITF inhib,PD-1 reverse act,YB-1 expr inh,Shh pathway inh
C[C@@H]1CN([C@H](C)CO)C(=O)c2cccc(NC(=O)c3ccc(-c4nccs4)cc3)c2O[C@H]1CN(C)Cc1ccc2c(c1)OCO2,39,.,0.27,17
C[C@H]1CN([C@@H](C)CO)C(=O)c2cc(NC(=O)Cc3ccccc3)ccc2O[C@H]1CN(C)C(=O)Nc1ccc2c(c1)OCO2,-2,3.1,-0.16,.
COc1ccc(C(=O)NCc2cccnc2)cc1C(=O)NCc1cccnc1,0,1.7,-0.097,-45
COc1ccc(OC)c(NC(=O)CCn2cnc3ccccc3c2=O)c1,-2,-1.7,.,.

Next results follow.
molecule,MITF inhib,PD-1 reverse act,YB-1 expr inh,Shh pathway inh
COc1ccc(C)cc1NC(=O)CN(c1ccc(Cl)cc1)S(C)(=O)=O,25,-2.6,.,.
C/C(=N\O)C(=O)Nc1cccc(C(F)(F)F)c1,11,1.9,0.19,-24
Cc1cc(C)n(-c2ncc(S(=O)(=O)c3ccc(Cl)cc3)c(N)n2)n1,-20,-0.3,-1.2,-48
C[C@H](CO)N1C[C@H](C)[C@H](CN(C)C)Oc2c(NC(=O)Nc3ccc4c(c3)OCO4)cccc2C1=O,-9,2.2,0.29,-16
C[C@@H]1CN([C@H](C)CO)C(=O)c2cccc(NC(=O)C3CC3)c2O[C@@H]1CN(C)S(=O)(=O)c1ccc(Cl)cc1,-7,.,-0.2,33
C[C@@H]1CN([C@H](C)CO)C(=O)Cc2cc(NC(=O)Nc3ccc(F)cc3)ccc2O[C@H]1CN(C)S(=O)(=O)c1cn(C)cn1,-2,0.9,0.15,3
Cc1ccc(S(=O)(=O)N(C)C[C@@H]2Oc3ccc(N(C)C)cc3C(=O)N([C@H](C)CO)C[C@H]2C)cc1,-8,3.2,-0.54,.
CNC[C@@H]1Oc2c(NC(=O)C3CC3)cccc2C(=O)N([C@H](C)CO)C[C@@H]1C,5,2.3,-0.78,-2
Cc1noc(C)c1S(=O)(=O)Nc1ccc2c(c1)C(=O)N([C@H](C)CO)C[C@H](C)[C@@H](CN(C)S(C)(=O)=O)O2,7,-0.4,-0.043,-7
C[C@@H]1CCCCO[C@H](CN(C)S(=O)(=O)c2cn(C)cn2)[C@@H](C)CN([C@H](C)CO)C(=O)c2cc(NC(=O)C3CCCCC3)ccc2O1,-10,.,0.41,.
C[C@H](CO)N1C[C@H](C)[C@@H](CN(C)Cc2ccc3c(c2)OCO3)Oc2ccc(NC(=O)Nc3cccc4ccccc34)cc2C1=O,-7,-1.3,0.3,32
Cc1noc(C)c1NC(=O)Nc1cccc2c1O[C@H](CN(C)CC1CC1)[C@H](C)CN([C@@H](C)CO)C2=O,-7,0.6,-0.023,-19
CCN(CC)C(=S)SCc1cn2cccc(C)c2n1,-4,-1.0,0.013,.
C/C1=C/C[C@H](O)/C(C)=C\[C@H]2OC(=O)[C@@H](C)[C@@H]2CC1,7,1.5,0.0087,-12
Cc1ccc(N(C(C)C(=O)Nc2c(C)cc(C)cc2C)S(C)(=O)=O)cc1 (stereo not given),-6,0.3,.,.
C[C@H](CCC(=O)O)[C@H]1CCC2[C@@H]3CC[C@@H]4C[C@H](O)CC[C@]4(C)C3C=C[C@@]21C (stereo not given in full),7,-0.1,-0.27,-2
C[C@@H]1CN([C@H](C)CO)C(=O)c2cccc(NC(=O)c3nc4ccccc4s3)c2O[C@@H]1CN(C)C(=O)Nc1ccc(F)cc1,-5,-1.3,0.21,12
O=c1c(-c2ccc(O)cc2)coc2cc(OC3OC(CO)C(O)C(O)C3O)cc(O)c12 (stereo not given),-9,4.2,-0.35,37
O=C(CC1Sc2ncnn2C1=O)Nc1ccccc1 (stereo not given),-2,-14,.,.
Cc1noc(C)c1NC(=O)Nc1cccc2c1O[C@H](CN(C)Cc1ccc3c(c1)OCO3)[C@@H](C)CN([C@H](C)CO)C2=O,7,2.2,-0.67,-36
OCc1nc2ccccc2n1CC(O)Cn1ccc2ccccc21 (stereo not given),25,0.2,.,.
C[C@H](CO)N1C[C@H](C)[C@H](CN(C)Cc2ccc(-c3ccccc3)cc2)Oc2c(NC(=O)C3CC3)cccc2C1=O,-5,-5.9,0.034,16
c1ccc2[nH]c(-c3nc4ccccc4s3)nc2c1,86*,-3.2,0.48,21
Cc1noc(C)c1NC(=O)Nc1ccc2c(c1)CC(=O)N([C@H](C)CO)C[C@@H](C)[C@H](CN(C)S(=O)(=O)c1cn(C)cn1)O2,-9,.,-0.27,27
Cc1ccc(S(=O)(=O)N(C)C[C@@H]2OCCCC[C@@H](C)Oc3ccc(NS(C)(=O)=O)cc3C(=O)N([C@H](C)CO)C[C@@H]2C)cc1,-4,-1.2,0.18,-25
Cc1cc(OCC(=O)Nc2cccc3ncccc23)cc(C)c1Cl,-12,0.5,.,.
CC(=O)c1ccc(NC(=O)CSc2nnc(N)n2-c2ccccc2)cc1,-64,0.5,.,.
COc1ccc(NC(=O)Nc2cccc3c2O[C@H](CN(C)C(=O)Nc2ccc(F)cc2)[C@H](C)CN([C@H](C)CO)C3=O)cc1,-4,.,-0.069,-21
Cc1cc(=O)[nH]c(SCCCOc2ccccc2-c2ccccc2)n1,48,0.5,.,.
C[C@@H]1CN([C@H](C)CO)C(=O)Cc2cc(NC(=O)Nc3ccc(C(F)(F)F)cc3)ccc2O[C@@H]1CN(C)Cc1ccc(Oc2ccccc2)cc1,-1,-10,-0.025,54
O=C(O)CSc1nc2cc(N3CCOCC3)c(F)cc2[nH]1,-7,1.4,.,.
C[C@H](CO)N1C[C@H](C)[C@H](CN(C)Cc2ccc(Cl)c(Cl)c2)Oc2ccc(NS(=O)(=O)c3ccc(Cl)cc3)cc2CC1=O,27,1.1,0.45,22
C[C@@H]1CCCCO[C@@H](CN(C)C(=O)Nc2ccc3c(c2)OCO3)[C@@H](C)CN([C@H](C)CO)C(=O)c2cc(NC(=O)Nc3ccc(F)cc3)ccc2O1,-3,-1.6,-0.084,0
Cc1noc(C)c1NC(=O)N(C)C[C@H]1Oc2ccc(NC(=O)Nc3cccc4ccccc34)cc2CC(=O)N([C@@H](C)CO)C[C@@H]1C,4,0.5,-0.35,-8
